# GLA inh pH 4.5 = alpha-galactosidase A (human) inhibition, pH 4.5; P06280; purified enzyme, 4-MU-alpha-Gal fluorescence, pH 4.5; activity change, negative = inhibition, % at 105 µM; 230,000 tested, under 10 active; AID 1467; inconclusive = small, poorly fitted or top-dose-only inhibition, or a rising curve; inactive = flat fitted curve, though single readings scatter; no compound was filed as active;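 note: 0% = full activity with enzyme and -100% = basal without enzyme; dose as in the result columns while the protocol names 77 µM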
# Rango complex inh = inhibitors of Rango-importin beta complex formation. Potency, µM (top dose mostly 92.2 µM), for the others: top-dose inhibition of complex formation. 340,000 compounds, 0.031% hits. Q14974. Rango CFP/YFP FRET sensor + importin beta, 45 min. AID 540263; active = rising FRET ratio curve, often small or poorly fitted; inconclusive = mostly compound fluorescence or quenching in the first reads; inactive = flat curves in all reads;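 note: potency is the fitted concentration of half-maximal effect; 0% = DMSO wells and 100% = buffer wells lacking importin beta; nearly all actives have a fitted effect of over 15% in size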
# Target sequence (Q14974 whole entry, looked up): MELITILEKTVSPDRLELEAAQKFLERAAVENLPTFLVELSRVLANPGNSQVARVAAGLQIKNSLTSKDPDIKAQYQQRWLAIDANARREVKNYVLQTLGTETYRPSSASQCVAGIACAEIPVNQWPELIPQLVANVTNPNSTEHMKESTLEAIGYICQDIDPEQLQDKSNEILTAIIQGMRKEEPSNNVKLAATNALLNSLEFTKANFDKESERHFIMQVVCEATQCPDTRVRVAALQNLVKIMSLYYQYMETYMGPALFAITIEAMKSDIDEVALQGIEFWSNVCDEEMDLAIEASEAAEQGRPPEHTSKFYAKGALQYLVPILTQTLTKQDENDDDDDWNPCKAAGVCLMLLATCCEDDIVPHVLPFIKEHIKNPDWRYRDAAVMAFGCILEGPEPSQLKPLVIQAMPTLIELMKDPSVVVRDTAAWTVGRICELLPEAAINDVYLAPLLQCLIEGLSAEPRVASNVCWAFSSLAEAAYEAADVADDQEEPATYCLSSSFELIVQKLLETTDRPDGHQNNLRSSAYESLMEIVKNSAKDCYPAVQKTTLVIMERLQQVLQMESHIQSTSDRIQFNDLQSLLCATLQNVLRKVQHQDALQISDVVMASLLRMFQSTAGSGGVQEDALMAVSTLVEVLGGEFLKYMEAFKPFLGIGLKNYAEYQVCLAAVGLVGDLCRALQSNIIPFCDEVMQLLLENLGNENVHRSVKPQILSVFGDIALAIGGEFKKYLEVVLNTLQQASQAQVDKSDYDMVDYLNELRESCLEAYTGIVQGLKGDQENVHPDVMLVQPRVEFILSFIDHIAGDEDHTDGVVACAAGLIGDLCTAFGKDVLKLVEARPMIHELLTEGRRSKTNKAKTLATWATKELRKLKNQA
#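 Inhibition scored from the CFP 486 nm/YFP 530 nm FRET ratio 45 min after adding 0.125 microM importin beta to 50 nM Rango biosensor preincubated 5 min with compound (room temperature, PBS with DTT, Tween-20, BSA). No-importin wells as positive control.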
# miR-21 reporter = raises the signal of a miR-21 reporter; AID 2288; Potency, µM (series often up to 38.3 µM), for the others: at the highest dose reporter change, positive = more light; HeLa miR-21 FLuc reporter, luciferase, 48 h; 340,000 tested, under 10 active; active = well fitted rising curve with a large enough effect; inconclusive = small, poorly fitted or top-dose-only effect; inactive = no such curve, though single readings can be large or run the other way;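 note: % of control where 0% means no effect; miR-21 action dims this reporter so a rising signal means less miR-21 action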
#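 Luminescence from a firefly luciferase reporter carrying a miR-21 binding site downstream, stably expressed under a CMV promoter in HeLa cells that make miR-21 endogenously, reports miRNA modulation after 48 h compound exposure up to approximately 40uM final.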
# Rango release inh = inhibitors of RanGTP-induced Rango-importin beta complex dissociation; O95149+P62826; Biochemical FRET Rango-importin beta, RanGTP-induced dissociation; Potency, µM (doses to about 46.1 µM), without a hit: top-dose activity change, negative = inhibition; 340,000 compounds, 0.071% hits; active means falling FRET ratio curve, often poorly fitted, with flat reads before Ran was added; inconclusive means other falling curves, or compound fluorescence or quenching; inactive means flat or rising ratio curve;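 note: potency is the fitted concentration of half-maximal effect; % of control where 0% means no effect; nearly all actives have a fitted effect of over 45% in size; -100% = wells without RanGTP and RCC1; the record marks most hits as doubtful in a second field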
#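 Rango (0.1 uM)–importin beta (0.25 uM) complex; RanGTP-RCC1 trigger; 45 min RT; CFP/YFP FRET read.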
# An asterisk follows results filed as active; ? = inconclusive; . = not tested or not shown. This is a subset; rates above refer to the full screens.
SMILES,GLA inh pH 4.5,Rango complex inh,miR-21 reporter,Rango release inh
COc1ccc(C2C(C#N)=C(N)N(c3ccccc3)C3=C2C(=O)CCC3)cc1Cn1cc([N+](=O)[O-])cn1 (centres undefined),2.5,6.3%,4.2%,9.9%
Cc1nn(CC(=O)N2CCC(C)CC2)c(=O)c2cccn12,.,2.2%,-0.2%,-15.4%
COc1ccc(C2N(c3ccccc3)CCN2c2ccccc2)cc1O,-6.0,10.1%,-24.7%,2.7%
CCOCCCNC(=O)c1ccccc1NC(=O)C1=C(C)OCCS1,.,-3.8%,1.7%,8.4%
CCN1CCN(CC(O)COC(C)C)CC1 (centres undefined),2.7,-0.6%,0.6%,0.6%
O=C(N/N=C\c1ccc(Cl)cc1)C1=NOC2COC3(CCN(c4ccc([N+](=O)[O-])cc4)CC3)OCC12 (centres undefined),-6.7,-4.6%,6.2%,-6.6%
O=C1CCN(S(=O)(=O)c2ccccc2)CCN1CCOCc1ccccc1,3.0,-2.1%,0.8%,8.8%
N#CC(C(=O)NC1CC1)c1nc2ccccc2nc1N1CCCC1 (centres undefined),-0.7,?,-0.2%,?
O=C(NNS(=O)(=O)c1ccc(F)cc1)C1CCN(S(=O)(=O)c2ccccc2)CC1,7.5,1.4%,7.0%,0.3%
CCOCCCNC(=O)C(NC(=O)c1ccc(=O)[nH]c1)c1ccc(C)cc1 (centres undefined),0.7,2.0%,-0.6%,-5.2%
CCCCN1C(=O)c2ccc(C(=O)NC3(C)CCS(=O)(=O)C3)cc2C1=O (centres undefined),.,-4.3%,.,0.2%
CCc1ccc(/C=N/NC(=O)c2cc(C3CC3)nc3ccc(Br)cc23)s1,8.2,-1.0%,17.8%,8.1%
OCC[C@@H]1C[C@@H](O)[C@H](O)[C@]2(Cc3ccccc3CO2)O1,.,0.3%,2.7%,7.6%
COC(=O)NCC(c1cccnc1)N1CCOCC1 (centres undefined),-1.2,-1.3%,-3.6%,-3.5%
COC1=C(OC)C(=O)C(Sc2ccc3ccccc3c2)=CC1=O,.,0.3%,.,-5.9%
COc1ccc(CNc2nc3c(c(=O)n(Cc4ccc(Cl)cc4)c(=O)n3C)n2C)cc1,-11.8,-7.3%,?,0.3%
Cc1cccc(CN2CCN(CC(C)C)C(CCO)C2)n1 (centres undefined),9.4,-0.2%,-1.3%,-15.7%
CCCC[n+]1ccn(C2=C([O-])c3ccccc3C(=O)/C2=N\S(=O)(=O)c2ccc(Br)cc2)c1,-8.5,1.9%,2.7%,0.7%
CC1=C(CC(=O)c2ccccc2)C(=O)c2ccccc2C1=O,-3.6,0.7%,27.1%,-7.4%
NC(=S)n1[nH]c(-c2ccccc2)c(N=Nc2ccccc2C(=O)N2CCOCC2)c1=O,-3.6,2.5%,-7.1%,?
CCOc1ccccc1C(C(=O)NC1CCCC1)N(Cc1ccco1)C(=O)CNC(=O)c1ccco1 (centres undefined),-21.8,2.2%,-20.3%,-20.3%
Cc1ccc(SCC(=O)OCC(=O)NCCc2ccccc2)cc1C,.,2.1%,.,-0.3%
NC(=O)c1sc2nc(N3CCOCC3)c3c(c2c1N)CCCC3,7.1,-1.0%,-22.9%,-24.4%
O=c1[nH]c2cccnc2n1Cc1ccco1,-1.6,-0.3%,6.5%,-7.7%
O=C(COC(=O)c1ccccc1-c1nc2ccccc2s1)Nc1ccccc1C(F)(F)F,-13.9,0.0%,-12.2%,9.7%

# Continuation.
SMILES,GLA inh pH 4.5,Rango complex inh,miR-21 reporter,Rango release inh
Cc1c(O)ccc2cc(S(=O)(=O)c3ccccc3)c(=O)oc12,.,?,1.1%,?
CCOc1[nH]n(-c2ccccc2)c(=O)c1C=Nc1ccc(C(=O)OC)cc1,-3.9,-0.3%,1.2%,1.3%
O=C(CN1CCN(c2ccccc2O)CC1)NC(=O)NCc1ccco1,1.6,-0.2%,-2.5%,-6.4%
CCOC(=O)c1c(NC(=O)CN2C(=O)NC3(CCCCCC3)C2=O)sc(C)c1-c1ccc(C)cc1,?,-0.4%,0.0%,22.0%
COc1ccccc1NC(=O)COC(=O)c1oc2ccccc2c1C,.,-3.7%,2.2%,1.8%
CCn1c(-c2ccccc2Cl)nn(CC(=O)Nc2cc(Cl)ccc2Cl)c1=S,-23.4,-0.6%,13.2%,-8.5%
CC1CC(C)CN(C(=O)C2CCN(S(=O)(=O)N3CCC4(CC3)OCCO4)CC2)C1 (centres undefined),.,-0.6%,-1.9%,14.6%
CC1(CO)COC(c2ccccc2)=N1 (centres undefined),0.9,-0.5%,-4.3%,0.4%
CC1CN(C(=O)CSc2nnc3c(Cl)cc(Cl)cn23)CC(C)O1 (centres undefined),5.0,1.0%,0.7%,0.9%
CCN(C(=O)c1cc2c(=O)n3ccccc3nc2s1)C1CCCCC1,.,?,-51.1%,-16.0%
CCCc1cc(=O)[nH]c(SCC(=O)Nc2ccc3ccccc3c2)n1,.,-1.1%,.,-5.0%
CN(CC(=O)Nc1ccc(Cl)c(C(F)(F)F)c1)C(=O)CNC(=O)C1CCCCC1,.,-0.5%,.,-20.7%
CCOC(=O)c1cc(NC(=O)c2ccc(C)cc2)c(=O)oc1-c1ccccc1,5.7,-0.3%,-0.5%,-1.9%
COc1ccc(S(=O)(=O)Nc2ccccc2C(=O)N2CCCCC2)cc1C,.,-0.8%,1.9%,-7.0%
O=C(CNC(=O)COc1ccccc1)NCCN1CCOCC1,.,-0.1%,.,-12.8%
CCC(C(=O)Nc1cccc(C(F)(F)F)c1)c1ccccc1 (centres undefined),-8.2,5.5%,3.2%,-2.9%
COc1ccc(N2CCN(S(=O)(=O)c3c(C)noc3/C=C/N(C)C)CC2)cc1,.,-6.2%,-0.8%,-19.1%
C(=N\Nc1ncnc2nc[nH]c12)/c1cccs1,-7.0,0.0%,-104.4%,34.3%
CCOC(=O)c1csc(NC(=O)c2cc(-c3ccccn3)nc3ccccc23)n1,.,6.5%,.,-2.4%
Cc1ccc(NC(=O)c2ccc(Cn3cc([N+](=O)[O-])cn3)cc2)c(C)c1,-25.0,0.9%,10.5%,4.5%
CC(=O)N1N=C(c2ccncc2)OC1(Cc1ccccc1)Cc1ccccc1,-6.8,-5.5%,13.4%,-2.5%
Cc1cc(C(=O)CSc2nn3c(=O)c(C(C)(C)C)nnc3s2)c(C)n1-c1ccc(F)cc1,0.4,-0.6%,-6.7%,-17.7%
Cc1ccc(NC(=O)c2ccco2)c(NC(=O)COc2ccccc2)c1,.,-2.1%,-1.1%,-1.8%
Cc1ccc(CN(C(=O)COc2cccc(C)c2C)C2CCS(=O)(=O)C2)o1 (centres undefined),.,-3.5%,-6.7%,-2.5%
COc1cc(C=O)ccc1OCC(=O)Nc1ccc2c(c1)OCO2,.,4.1%,-28.9%,-6.5%

# (further entries)
SMILES,GLA inh pH 4.5,Rango complex inh,miR-21 reporter,Rango release inh
N#CC(C#N)=CN=c1ccn(Cc2ccc(Cl)cc2Cl)cc1,.,?,24.5%,-24.8%
COC(=O)c1ccc(COc2ccc(NC(C)=O)cc2)o1,4.0,5.7%,-15.3%,-0.2%
CCOC(=O)c1cnc(C(F)(F)F)nc1Oc1ccccc1,2.5,4.6%,8.3%,-5.5%
COc1ccc(S(N)(=O)=O)cc1C(=O)NNC(=O)CN(C)S(=O)(=O)c1ccc(Cl)cc1,.,2.1%,.,-10.6%
COc1ccc([N+](=O)[O-])cc1NC(=O)CCN1CCN(C)CC1,0.1,1.1%,-4.7%,-4.3%
O=C(Cc1cccs1)Nc1ccc(N2CCOCC2)cc1,-4.5,-5.4%,-41.0%,-6.1%
CN(C)S(=O)(=O)c1cccc(NC(=O)COc2nc3ccccc3nc2N2CCOCC2)c1,-1.3,0.4%,-4.1%,-13.7%
COc1ccc(NC(=S)N/N=C/c2cccn2Cc2ccc(F)cc2)cc1,4.8,-0.1%,14.2%,-2.1%
CC1CN(c2ccc(NS(=O)(=O)c3ccccc3)cc2C(=O)O)CC(C)O1 (centres undefined),-1.1,0.1%,-6.2%,-0.4%
COc1cc(/C=N/NC(=O)c2cc(-c3c(C)nn(-c4ccccc4)c3C)n[nH]2)ccc1O,-3.2,1.4%,11.4%,10.3%
O=C1Nc2cc(C(=O)NCCCN3CCOCC3)ccc2S/C1=C/c1ccccc1F,.,?,-6.4%,-3.7%
CCOC(=O)Cn1nc(C)c(-c2ccccc2)c1N,-0.8,0.1%,-8.1%,7.4%
CC(=O)OC1COC(N2CCc3cc([N+](=O)[O-])ccc32)C(OC(C)=O)C1OC(C)=O (centres undefined),1.5,2.2%,0.2%,7.2%
Cc1cc(C)c(NC(=O)c2ccccc2C(=O)c2ccccc2)c(C)c1,7.4,2.6%,-1.1%,42.9%
Nc1ccccc1N=c1ssnc1Cl,4.7,-2.8%,-18.2%,-21.8%
O=C(c1scc2c1CCCC2)N1CCOCC1,0.6,-0.6%,-1.6%,-2.9%
CCOC(=O)Cc1csc(NC(=O)c2cnc3sc(C)cn3c2=O)n1,.,4.3%,-45.6%,-7.5%
COc1ccc(/C=C/C(=O)NC(=S)Nc2ccccc2C(=O)NC2CCCCC2)cc1,2.3,?,-2.1%,0.1%
CC(C)c1ccc(C(O)c2nc3ccccc3n2C)cc1 (centres undefined),.,0.4%,-0.1%,-12.9%
COc1cc(NC(=O)CN(c2ccc(C)cc2)S(=O)(=O)c2c(C)n[nH]c2C)cc(OC)c1,-1.5,2.0%,3.9%,1.0%
CC(C)=CCC/C(C)=C/COc1c2occc2cc2ccc(=O)oc12,-3.8,0.3%,.,7.9%
Cn1c(=O)c2c(nc(N3CCCCC3)n2CC(O)COc2ccccc2)n(C)c1=O (centres undefined),.,-2.5%,-1.8%,-6.4%

# Compound profiles, as listed above.
# Listed for O=C1Nc2cc(C(=O)NCCCN3CCOCC3)ccc2S/C1=C/c1ccccc1F → GLA inh pH 4.5: .; Rango complex inh: ?; miR-21 reporter: -6.4%; Rango release inh: -3.7%
# Listed for O=C(c1scc2c1CCCC2)N1CCOCC1 → GLA inh pH 4.5: 0.6; Rango complex inh: -0.6%; miR-21 reporter: -1.6%; Rango release inh: -2.9%

# Gathered by group: the entries above with a halogen (17)
SMILES,GLA inh pH 4.5,Rango complex inh,miR-21 reporter,Rango release inh
O=C(N/N=C\c1ccc(Cl)cc1)C1=NOC2COC3(CCN(c4ccc([N+](=O)[O-])cc4)CC3)OCC12 (centres undefined),-6.7,-4.6%,6.2%,-6.6%
O=C(NNS(=O)(=O)c1ccc(F)cc1)C1CCN(S(=O)(=O)c2ccccc2)CC1,7.5,1.4%,7.0%,0.3%
CCc1ccc(/C=N/NC(=O)c2cc(C3CC3)nc3ccc(Br)cc23)s1,8.2,-1.0%,17.8%,8.1%
COc1ccc(CNc2nc3c(c(=O)n(Cc4ccc(Cl)cc4)c(=O)n3C)n2C)cc1,-11.8,-7.3%,?,0.3%
CCCC[n+]1ccn(C2=C([O-])c3ccccc3C(=O)/C2=N\S(=O)(=O)c2ccc(Br)cc2)c1,-8.5,1.9%,2.7%,0.7%
O=C(COC(=O)c1ccccc1-c1nc2ccccc2s1)Nc1ccccc1C(F)(F)F,-13.9,0.0%,-12.2%,9.7%
CCn1c(-c2ccccc2Cl)nn(CC(=O)Nc2cc(Cl)ccc2Cl)c1=S,-23.4,-0.6%,13.2%,-8.5%
CC1CN(C(=O)CSc2nnc3c(Cl)cc(Cl)cn23)CC(C)O1 (centres undefined),5.0,1.0%,0.7%,0.9%
CN(CC(=O)Nc1ccc(Cl)c(C(F)(F)F)c1)C(=O)CNC(=O)C1CCCCC1,.,-0.5%,.,-20.7%
CCC(C(=O)Nc1cccc(C(F)(F)F)c1)c1ccccc1 (centres undefined),-8.2,5.5%,3.2%,-2.9%
Cc1cc(C(=O)CSc2nn3c(=O)c(C(C)(C)C)nnc3s2)c(C)n1-c1ccc(F)cc1,0.4,-0.6%,-6.7%,-17.7%
N#CC(C#N)=CN=c1ccn(Cc2ccc(Cl)cc2Cl)cc1,.,?,24.5%,-24.8%
CCOC(=O)c1cnc(C(F)(F)F)nc1Oc1ccccc1,2.5,4.6%,8.3%,-5.5%
COc1ccc(S(N)(=O)=O)cc1C(=O)NNC(=O)CN(C)S(=O)(=O)c1ccc(Cl)cc1,.,2.1%,.,-10.6%
COc1ccc(NC(=S)N/N=C/c2cccn2Cc2ccc(F)cc2)cc1,4.8,-0.1%,14.2%,-2.1%
O=C1Nc2cc(C(=O)NCCCN3CCOCC3)ccc2S/C1=C/c1ccccc1F,.,?,-6.4%,-3.7%
Nc1ccccc1N=c1ssnc1Cl,4.7,-2.8%,-18.2%,-21.8%
